Mtb H37Rv: Mycobacterium tuberculosis H37Rv growth inhibition, cell based, confirmatory dose response (AID 1949) | M. tuberculosis H37Rv growth inhibition | most inactive calls were filed without a number and no value below 0 was filed | one-dose inhibition, % at 10 µg/mL; IC50 in µg/mL for titrated hits | 100,000 compounds, 1.6% hits;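 active means confirmed in a dose series; inconclusive means about 50% or more but not retested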;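 further: bacteria grown 7 days with compound before Alamar blue readout; 0% = untreated bacteria and 100% = reference antibiotic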
The depositor's hits bear a star; i = inactive; u = inconclusive. Only part of the results is shown; rates above refer to the full screens.

The first 17 compounds (preview)
SMILES	Mtb H37Rv
COc1ccc(C(CC(=O)Nc2ccc(C)cc2C)c2ccccc2)cc1 (centres undefined)	i
CC(=O)c1cccc(NC(=O)c2ccc(N(C)S(=O)(=O)c3ccc(Cl)cc3)cc2)c1	i
Cc1ccc([N+](=O)[O-])cc1NC(=S)NC(=O)c1ccccc1I	i
O=C(COc1ccc2c(-c3ccccc3)cc(=O)oc2c1)NCc1ccc(Cl)cc1	i
CCN(CC)CCOc1ccc(Br)cc1C	i
Oc1ccc(-c2n[nH]c(=S)n2Cc2ccco2)cc1	i
COC(=O)c1ccc(-n2nnnc2SCc2ccccc2OC)cc1	i
Cc1ccc(-n2nnnc2SCC(=O)Nc2ccccc2-c2ccccc2)cc1C	i
CN1C(=O)c2ccc(NC(=O)CSc3ccc(Cl)cc3)cc2C1=O	6%
O=C(O)C1CCCN1c1nc(C(F)(F)F)nc2ccccc12 (centres undefined)	i
O=C(c1ccc([N+](=O)[O-])cc1)N(Cc1cc2ccccc2[nH]c1=O)c1ccccc1	i
Cc1ccc(S(=O)(=O)Nc2ccc(O)c(Cl)c2)c(C)c1	4%
Cc1cc(C(=O)N2CCC(Cc3ccccc3)CC2)c(C)o1	1%
Cc1ccc(NC(=O)c2ccccc2NC(=O)c2cccnc2)cc1	i
COC(=O)c1ccc(Cl)c(NC(=O)c2ccc(C)cc2)c1	i
Cc1cc(OCC(=O)N(CCC#N)c2ccccc2)cc2oc(=O)c3ccccc3c12	i
O=C(CCSc1nccn1Cc1ccccc1)N1CCOCC1	i

The listing (from the top)
SMILES	Mtb H37Rv
COc1ccc(C(CC(=O)Nc2ccc(C)cc2C)c2ccccc2)cc1 (centres undefined)	i
CC(=O)c1cccc(NC(=O)c2ccc(N(C)S(=O)(=O)c3ccc(Cl)cc3)cc2)c1	i
Cc1ccc([N+](=O)[O-])cc1NC(=S)NC(=O)c1ccccc1I	i
O=C(COc1ccc2c(-c3ccccc3)cc(=O)oc2c1)NCc1ccc(Cl)cc1	i
CCN(CC)CCOc1ccc(Br)cc1C	i
Oc1ccc(-c2n[nH]c(=S)n2Cc2ccco2)cc1	i
COC(=O)c1ccc(-n2nnnc2SCc2ccccc2OC)cc1	i
Cc1ccc(-n2nnnc2SCC(=O)Nc2ccccc2-c2ccccc2)cc1C	i
CN1C(=O)c2ccc(NC(=O)CSc3ccc(Cl)cc3)cc2C1=O	6%
O=C(O)C1CCCN1c1nc(C(F)(F)F)nc2ccccc12 (centres undefined)	i
O=C(c1ccc([N+](=O)[O-])cc1)N(Cc1cc2ccccc2[nH]c1=O)c1ccccc1	i
Cc1ccc(S(=O)(=O)Nc2ccc(O)c(Cl)c2)c(C)c1	4%
Cc1cc(C(=O)N2CCC(Cc3ccccc3)CC2)c(C)o1	1%
Cc1ccc(NC(=O)c2ccccc2NC(=O)c2cccnc2)cc1	i
COC(=O)c1ccc(Cl)c(NC(=O)c2ccc(C)cc2)c1	i

Going on with the list:
SMILES	Mtb H37Rv
Cc1cc(OCC(=O)N(CCC#N)c2ccccc2)cc2oc(=O)c3ccccc3c12	i
O=C(CCSc1nccn1Cc1ccccc1)N1CCOCC1	i
COC(=O)C1NN=C(C(=O)c2ccccc2)C1c1ccccc1 (centres undefined)	i
Cc1cc(C)c(S(=O)(=O)N(CCc2ccccc2)CC(N)=O)c(C)c1	5%
O=C(c1cn(-c2ccccc2)nc1-c1cccc(Cl)c1)N1CCCCC1	36%
COc1ccc(S(=O)(=O)N(CC(=O)N2CCN(c3cccc(Cl)c3)CC2)c2ccccc2OC)cc1	i
CC1CCN(S(=O)(=O)c2ccc(C(=O)Nc3nc(-c4ccccc4)cs3)cc2)CC1	i
CN(C)c1ccc(N2CCN(S(=O)(=O)c3ccc(Cl)cc3)CC2)c([N+](=O)[O-])c1	1%
COc1ccc(-n2nc3cc(C)c(NC(=O)c4ccccc4Br)cc3n2)cc1	i
CCOc1ccccc1N1CC(C(=O)Nc2ccc(C)cc2C)CC1=O (centres undefined)	i
CCOC(=O)c1ccc(N(Cc2ccccc2Cl)S(C)(=O)=O)cc1	i
CCS(=O)(=O)Nc1ccc(C)c([N+](=O)[O-])c1	i
CN1C(=O)c2ccc(NC(=S)NC(=O)CC34CC5CC(CC(C5)C3)C4)cc2C1=O	2%
O=C(Nc1c(C(=O)NCc2ccco2)cnn1-c1ccccc1)c1ccc(F)cc1	4%
O=C(CSc1ccccn1)N1CCN(C(c2ccccc2)c2ccccc2)CC1	i

Later entries
SMILES	Mtb H37Rv
COc1c(Cl)cc(C(=O)NCc2ccncc2)cc1Cl	i
CCOC(=O)c1c(NC(=O)CSc2nnc(-c3ccco3)o2)sc(C)c1C	i
Cn1c(=O)n(Cc2ccc(Cl)cc2)c(=O)c2c1ncn2Cc1ccc(Cl)cc1	2%
CC(=O)c1c(C)nn(C(=O)c2ccccc2)c1C(F)(F)F	i
O=C(Nc1ccc2c(c1)OCO2)c1cccc(S(=O)(=O)N2CCOCC2)c1	i
O=C(Nc1c(-c2ccccc2)nc2ccccn12)c1ccc(Cl)cc1	2%
CCOC(=O)c1ccc(NC(=O)CSc2nc3ccccc3c(=O)n2Cc2ccco2)cc1	i
COc1cc(C(=O)Oc2cc3c4c(c2)C(C)CC(C)(C)N4C(=O)C3=O)cc(OC)c1OC (centres undefined)	i
COC(=O)CN(c1ccc(Cl)c(C(F)(F)F)c1)S(=O)(=O)c1ccccc1	i
CCOC(=O)c1c(NC(=O)CCN2C(=O)c3ccccc3C2=O)sc2c1CCCC2	i
NC(=O)CSc1nnc(-c2ccco2)n1Cc1ccccc1	i
Cc1cc(C)c(NC(=O)C(C)SCC(=O)Nc2ccccc2)c(C)c1 (centres undefined)	i
COc1cc(NC(=O)c2c(F)c(F)c(OC)c(F)c2F)ccc1NC(=O)C(C)C	i
O=C(Nc1ccc(CN2CCCCC2)cc1)c1ccc(Cl)cc1	4%
Cc1ccc(NC(=O)CCN2C(=O)C3C4CCC(C4)C3C2=O)cc1[N+](=O)[O-] (centres undefined)	i

(further entries)
SMILES	Mtb H37Rv
CN(CC(O)Cn1c2ccccc2c2ccccc21)S(C)(=O)=O (centres undefined)	i
Cc1ccc(OCC(=O)Nc2ccc(S(=O)(=O)Nc3ccccc3)cc2)cc1	i
O=C(O)c1ccc(Cn2cc(Cl)cn2)o1	i
Cc1cc(F)c(F)c(C(=O)NC2CCCCC2)c1Cl	i
CC1=CC(C)(C)Nc2ccc(OC(=O)COc3ccccc3[N+](=O)[O-])cc21	42%
Cc1ccc2ccccc2c1CN1CCN(C(=O)CN2C(=O)c3ccccc3C2=O)CC1	i
CC1(C)Cc2[nH]c(=O)c(C#N)cc2CO1	2%
COc1ccc(CCNC(=S)Nc2ccc3c(c2)CCC3)cc1OC	i
CN(C)C(=S)Nc1ccc(Cc2ccncc2)cc1	i
C=CCc1cccc2cc(C(=O)NCCOC)c(=O)oc12	i
Cc1cc(C)c(S(=O)(=O)Nc2c(C)cccc2C(C)C)c(C)c1	6%
Cc1cccc(-n2c(=O)c3c4c(sc3n3c(C)nnc23)CCCC4)c1	i
CC(C)N(Cc1ccccc1)C(=O)CCS(=O)(=O)Cc1ccccc1	i
Cc1c(Cl)cccc1NC(=O)C1CCN(S(=O)(=O)c2ccc(F)cc2)CC1	i
O=C(CSc1nnc(-c2ccccc2)n1Cc1ccccc1)NC1CC1	i

Additional compounds:
SMILES	Mtb H37Rv
COc1cc(C(=O)NC(=S)Nc2ccc(N3CCCC3)cc2)cc(OC)c1OC	u
COc1ccccc1NC(=O)c1ccc(COc2ccccc2Br)cc1	i
CCOc1ccccc1Nc1ncnc2ccc(I)cc12	i
Cc1cc(Br)ccc1OCCCN1CCCC1	i
Cc1ccc(-n2c(C)nnc2SCC(=O)Nc2ccccc2C(F)(F)F)cc1C	i
Oc1ccc(Br)cc1C1=NNC(c2ccc(F)cc2)C1 (centres undefined)	2.9µg/mL*
Cc1cc(S(=O)(=O)Nc2cc(Cl)ccc2O)ccc1F	i
CC(=O)Nc1ccc(N2C(=O)CC(NCc3cccnc3)C2=O)cc1 (centres undefined)	1%
COc1cc(C)ccc1OCCOCCOc1ccc(I)cc1	i
O=S(=O)(c1ccc(Cl)cc1)N1CCN(c2ncccn2)CC1	i
O=C(CCCC(=O)Nc1cccc(Cl)c1)Nc1cccc(Cl)c1	i
Cn1nnnc1SCCNCc1ccncc1	i
O=C(O)CCCC(=O)Nc1ccccc1C(=O)N1CCCC1	i
Cc1[nH]nc(-c2ccc(OCc3cnn(-c4ccccc4)c3)cc2O)c1Oc1ccc(Cl)cc1	u
Cc1cc(Cl)c(S(=O)(=O)N2CC(C)OC(C)C2)cc1OCC(N)=O (centres undefined)	i

(cont.)
SMILES	Mtb H37Rv
COc1ccc(OC)c(C2C(C(=O)Nc3cccc(C)n3)=C(C)NC3=C2C(=O)CC(C)(C)C3)c1 (centres undefined)	i
Cc1ccccc1OCc1nnc(SCC(=O)Nc2ccc(Cl)cc2Cl)n1C	i
COC(=O)c1ccc(C(=O)OC)c(NC(=O)c2ccccc2)c1	i
O=C(CSCc1ccccc1Br)NNC(=S)NCc1ccco1	i
COc1ccccc1Oc1ccc(-c2cnc3ccccc3n2)cc1[N+](=O)[O-]	i
Cc1ccnc(NC(=O)CN(C)S(=O)(=O)c2ccc3ccccc3c2)c1	2%
O=C(/C=C/c1ccccc1)Nc1ncc(Cc2cccc(Cl)c2)s1	i
CCOCC(=O)Nc1ccc(Cl)c(Cl)c1	u
COC(=O)Cc1ccc(NC(=S)N2CCN(C/C=C/c3ccccc3)CC2)cc1	i
C/C=C/c1ccc(OCCCCNCCN(C)C)c(OC)c1	i
Cc1ccc(C(=O)Nc2c(C)cccc2C(=O)O)cc1C	i
CCOCCCNC(=O)CSCc1c(F)cccc1Cl	i

Rewritten field by field: part of the list above.
Compound: COc1ccc(OC)c(C2C(C(=O)Nc3cccc(C)n3)=C(C)NC3=C2C(=O)CC(C)(C)C3)c1 (centres undefined)
- Mtb H37Rv: i

Compound: Cc1ccccc1OCc1nnc(SCC(=O)Nc2ccc(Cl)cc2Cl)n1C
- Mtb H37Rv: i

The results go on:
SMILES	Mtb H37Rv
COc1ccc(C(=O)NC(Nc2ccc(Cl)cc2)C(Cl)(Cl)Cl)cc1OC (centres undefined)	i
CCOC(=O)C1CCN(C(=O)CN(c2ccc(Cl)cc2Cl)S(=O)(=O)c2ccccc2)CC1	i
Cc1ccc(-c2cc3ccccn3c2C(=O)CSc2nncn2C)cc1	i
CC(=O)Nc1ccc2nc(NC(=O)c3ccc([N+](=O)[O-])o3)sc2c1	u
Cc1c(C(=O)Nc2ccc(Br)cc2Cl)oc2ccccc12	0%
Cc1ccccc1C(=O)N1CCC(C(=O)Nc2c(F)cccc2F)CC1	i
CCCCOc1ccccc1NC(=O)CC1Nc2cc(C)c(C)cc2NC1=O (centres undefined)	i
Cc1cc(C(=O)NC(=S)Nc2ccc(I)cn2)ccc1[N+](=O)[O-]	2%
Cc1c(NC(=O)CSc2nc(-c3ccccc3)c(C#N)c(=O)[nH]2)c(=O)n(-c2ccccc2)n1C	i
Cc1ccc(C(C)C)c(OC(=O)c2c(F)c(F)c(F)c(F)c2F)c1	u
CCOc1ccc(Cc2nnc(SCc3ccc(OC)c(Br)c3)s2)cc1	9%
Cc1ccc(-n2c(NCCO)nc3sc4c(c3c2=O)CCCC4)cc1	i

Next entries.
SMILES	Mtb H37Rv
COc1ccccc1N1C(=O)NC(=O)C(CCc2ccccn2)(Cc2ccc([N+](=O)[O-])cc2)C1=O (centres undefined)	i
Cc1ccc(C(=O)COc2ccc(NC(=O)c3cccs3)cc2)cc1C	i
CCCn1c(SCC(=O)NCc2ccccc2)nnc1-c1ccccc1	i
Fc1ccc(-c2cnc3ccccc3n2)cc1	i
Cc1cc(C)c(NC(=O)C(C)N(c2ccc(Oc3ccccc3)cc2)S(C)(=O)=O)c(C)c1 (centres undefined)	i
Cc1ccc(C)c(CN(CCCN(C)C)CCCN(C)C)c1	i
Cc1ccc(Nc2ncnc3sc4c(c23)CCC(C)C4)cc1Br (centres undefined)	i
COc1ccc(C(=O)CN2C(=O)c3ccccc3C2=O)c(OC)c1C	i
O=C(CCCN1C(=O)c2ccccc2C1=O)Nc1ccc(S(=O)(=O)N2CCCCC2)cc1	i
S=C(Nc1ccccc1)Nc1nc2ccccc2n1CCOc1ccccc1	14%
COCC(=O)Nc1c(C(C)C)cccc1C(C)C	i
O=C(CSc1ccc(Cl)cc1)Nc1ccccc1NC(=O)CSc1ccc(Cl)cc1	i

(list continues)
SMILES	Mtb H37Rv
CCn1cnc2cc(NCc3cccs3)ccc21	i
CCn1c(SCC(=O)Nc2nc(-c3ccc(Cl)cc3)cs2)nnc1-c1ccc(OC)cc1	i
CNC(=O)c1ccc(Nc2nnc(C)c3ccccc23)cc1	2%
COc1ccc2c(c1)c(=O)oc1c(C)c(OC(C(=O)O)c3ccccc3)ccc12 (centres undefined)	11%
COc1ccc(OC)c(NC(=O)c2c(NC(=O)c3ccncc3)sc3c2CCC3)c1	i
CCNC(=S)N1CCN(c2cccc(O)c2)CC1	i
Cc1ccc(N2C(=O)CC(NCc3ccc(Cl)cc3)C2=O)cc1 (centres undefined)	3%
CCCC(=O)Nc1ccc(C(=O)Nc2ccc(Br)cc2)cc1	i
COc1ccc(Cl)cc1NC(=S)Nc1ccc(-c2nc3ccc(C)cc3s2)cc1	i
O=C(Nc1ccc(Br)cc1F)c1ccc(CN2CCc3ccccc3C2)cc1	3%
CCn1c(CCNC(=O)c2ccc(OC)cc2)nnc1SCC(=O)Nc1ccc(Cl)cc1C	i
S=C(Nc1ccc2nsnc2c1)N1CCN(c2ccccc2)CC1	4%

Additional results:
SMILES	Mtb H37Rv
C=CCNC(=O)c1ccccc1NC(=O)CN(c1ccccc1OCC)S(=O)(=O)c1ccc(C)cc1	i
CC(=O)c1ccc(OCCN2CCOCC2)cc1	i
COC(=O)c1c(NC(=S)Nc2ccc(C(=O)N3CCOCC3)cc2)sc2c1CCC2	i
CCc1nc2sc3c(c2c(=O)[nH]1)CCC(C)C3 (centres undefined)	i
CC(=O)Nc1cc(C(F)(F)F)ccc1N1CCCCC1	i
CCN(CC)c1ccc(C(=O)NNC(=S)NC2CCCCC2)cc1	i
O=c1[nH]c(=O)c2sc3nc(Cc4ccccc4)cc(C(F)(F)F)c3c2[nH]1	i

Bioassay records deposited in PubChem by Southern Research Institute.
